# GLA inh pH 4.5 – qHTS Assay for Inhibitors of Human alpha-Galactosidase at pH 4.5; activity change, negative = inhibition, % at 105 µM; 230,000 tested, under 10 active; purified enzyme, 4-MU-alpha-Gal fluorescence, pH 4.5; Alpha-galactosidase A (Homo sapiens), P06280; inconclusive = small, poorly fitted or top-dose-only inhibition, or a rising curve; inactive = flat fitted curve, though single readings scatter; no compound was filed as active;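 also: 0% = full activity with enzyme and -100% = basal without enzyme; dose as in the result columns while the protocol names 77 µM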
# Rango-impB inh – qHTS Assay for Inhibitors of Rango (Ran-regulated importin-beta cargo) - Importin beta complex formation; Importin subunit beta-1 (Homo sapiens), Q14974; Rango CFP/YFP FRET sensor + importin beta, 45 min; Potency, µM (highest dose often 92.2 µM), for inactives: top-dose inhibition of complex formation; hit rate 0.031% among 340,000; active = rising FRET ratio curve, often small or poorly fitted; inconclusive = mostly compound fluorescence or quenching in the first reads; inactive = flat curves in all reads;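 also: potency is read from the fitted curve at half-maximal effect; 0% = DMSO wells and 100% = buffer wells lacking importin beta; nearly all actives have a fitted effect of over 15% in size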
# Target sequence (Q14974 whole entry, looked up): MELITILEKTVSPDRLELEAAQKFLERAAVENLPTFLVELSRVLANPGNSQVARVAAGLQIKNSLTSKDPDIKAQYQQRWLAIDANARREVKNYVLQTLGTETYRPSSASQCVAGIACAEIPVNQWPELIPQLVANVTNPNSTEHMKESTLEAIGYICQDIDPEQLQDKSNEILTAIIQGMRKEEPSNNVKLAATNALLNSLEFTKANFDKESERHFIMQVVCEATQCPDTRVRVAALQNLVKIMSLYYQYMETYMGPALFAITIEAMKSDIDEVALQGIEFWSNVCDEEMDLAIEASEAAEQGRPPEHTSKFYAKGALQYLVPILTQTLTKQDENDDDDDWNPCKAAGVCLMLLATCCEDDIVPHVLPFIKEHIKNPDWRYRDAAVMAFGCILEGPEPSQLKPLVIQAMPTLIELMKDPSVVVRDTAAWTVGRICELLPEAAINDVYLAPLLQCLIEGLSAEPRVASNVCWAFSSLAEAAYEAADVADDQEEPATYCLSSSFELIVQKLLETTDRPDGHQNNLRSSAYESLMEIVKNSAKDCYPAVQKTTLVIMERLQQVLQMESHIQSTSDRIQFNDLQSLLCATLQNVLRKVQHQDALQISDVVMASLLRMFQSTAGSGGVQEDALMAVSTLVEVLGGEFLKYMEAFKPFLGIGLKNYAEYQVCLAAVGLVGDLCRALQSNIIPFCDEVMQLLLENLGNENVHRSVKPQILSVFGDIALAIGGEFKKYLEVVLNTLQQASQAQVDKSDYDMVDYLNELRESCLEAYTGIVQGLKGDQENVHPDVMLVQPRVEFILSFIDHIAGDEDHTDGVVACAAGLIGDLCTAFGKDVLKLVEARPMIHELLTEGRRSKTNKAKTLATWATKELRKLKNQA
#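 FRET biosensor Rango (snurportin 1 IBB between N-terminal EYFP and C-terminal Cerulean), 50 nM in PBS/1 mM DTT/0.02% Tween-20/0.1% BSA, preincubated 5 min RT with compound; 0.125 microM importin beta added, 45 min RT, CFP/YFP FRET ratio read.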
# Rango release inh – qHTS Assay for Inhibitors of RanGTP induced Rango (Ran-regulated importin-beta cargo) - Importin beta complex dissociation; hit rate 0.071% among 340,000; Potency, µM (highest dose often 46.1 µM), without a hit: top-dose activity change, negative = inhibition; Snurportin-1 (Homo sapiens) + GTP-binding nuclear protein Ran (Homo sapiens) + Importin …; Biochemical FRET Rango-importin beta, RanGTP-induced dissociation; active means falling FRET ratio curve, often poorly fitted, with flat reads before Ran was added; inconclusive means other falling curves, or compound fluorescence or quenching; inactive means flat or rising ratio curve;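 also: potency is read from the fitted curve at half-maximal effect; % of control where 0% means no effect; nearly all actives have a fitted effect of over 45% in size; -100% = wells without RanGTP and RCC1; the record marks most hits as doubtful in a second field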
#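 Compounds sat 5 min at room temperature with 0.1 uM Rango biosensor plus 0.25 uM importin beta, then FRET pre-read. RanGTP-RCC1 (0.6 uM Ran, 2mM GTP, 0.2 uM RCC1) added for 45 min, and the CFP/YFP post-read measured blocked complex dissociation.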
# miR-21 reporter – qHTS Assay for Modulators of miRNAs and/orActivators of miR-21; HeLa miR-21 FLuc reporter, luciferase, 48 h; Potency, µM (titrated, usually from 38.3 µM), for the others: at the highest dose reporter change, positive = more light; 340,000 tested, under 10 active; active = well fitted rising curve with a large enough effect; inconclusive = small, poorly fitted or top-dose-only effect; inactive = no such curve, though single readings can be large or run the other way;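 also: % of control where 0% means no effect; miR-21 action dims this reporter so a rising signal means less miR-21 action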
#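 HeLa cells stably expressing CMV-driven firefly luciferase with a downstream miR-21 binding sequence, endogenously expressing miR-21, were treated with titrations (up to about 40uM final) for 48 hours at 37 degree Celsius. Luciferase luminescence was read after lysis.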
# An asterisk follows results filed as active; ? = inconclusive; . = no result given; & = joins results of further samples. An excerpt; count on the stated rates, not on these rows.
No.	canonical_smiles	GLA inh pH 4.5	Rango-impB inh	Rango release inh	miR-21 reporter
1	CCN(c1ccc(NC(=O)CSCc2c(C)noc2C)cc1)C(C)C	.	?	-6%	.
2	O=C(O)C1CCN(S(=O)(=O)N2CCOCC2)CC1	1	0.4%	26%	0%
3	Cn1c(=O)cc(SCC(=O)N2CCCC2)c2ccc(Cl)cc21	4	-3.9%	15%	-10%
4	O=C(NCCN1CCOCC1)C1CCN(c2nc3ccccc3o2)CC1	-2	8.7%	5%	-4%
5	CCCCCC(=O)OCCc1c(C)nc2nc[nH]n2c1=O	1	-0.4%	-3%	3%
6	COCCOC(=O)C1=C(C)NC(=O)NC1c1ccc(Cl)cc1 (configuration not stated)	2	-2.3%	0%	-3%
7	C[C@H](CCC(=O)O)[C@H]1CC[C@H]2[C@@H]3C(=O)C[C@@H]4CC(=O)CC[C@]4(C)[C@H]3CC(=O)[C@]12C	0	-1.5%	4%	1%
8	COc1ccc2c(c1OC)OCC2C (configuration not stated)	.	5.0%	2%	.
9	O=C(/C(=C(\O)c1ccccc1)c1ncc[nH]1)c1ccccc1	2	-0.7%	5%	3%
10	CC(C)CCNC(=O)C1CCC(=O)N1CCc1ccccc1 (configuration not stated)	.	-2.8%	0%	-2%
11	CCN1CCN(C(=S)NCCc2ccccc2)CC1	1	2.5%	-7%	-38%
12	CC(=O)c1cccc(NC2c3ccccc3C(=O)N2Cc2ccco2)c1 (configuration not stated)	-3	0.7%	5%	10%
13	O=C(Oc1ccc(-c2csnn2)cc1)C1CC1	3	3.5%	1%	5%
14	CCOC(=O)c1c(-c2ccccc2)csc1NC(=O)CSc1nc(C)cc(C)n1	-3	-4.0%	2%	10%
15	C/C(O)=C(/C=NCC(=O)O)C(=O)Nc1nccs1	-5	-0.6%	-6%	-2%
16	O=C(NC(C(=O)O)c1ccccc1)c1ccccc1 (configuration not stated)	1	1.2%	-3%	-1%
17	CS(=O)(=O)N1CCN(c2c(Cl)cccc2[N+](=O)[O-])CC1	-7	-0.8%	-1%	-8%
18	CC(C)COC(=O)Nc1nnc(Cc2ccccc2)s1	-5	-3.1%	-8%	-8%
19	Cn1ccnc1SCC(=O)c1cccc(Br)c1	-1	1.4%	-13%	-43%
20	CC(=O)COc1ccc2c3c(c(=O)oc2c1)CCCC3	4	?	-14%	-41%
21	CC(NC(=O)CSc1nc2ccc(N)cc2s1)c1ccccc1 (configuration not stated)	0	-2.8%	5%	-4%
22	Cc1ccccc1NC(=O)c1ccc(F)c(S(=O)(=O)N2CCN(c3ccccn3)CC2)c1	-2	-1.7%	?	12%
23	CC1(c2ccccc2Cl)NC(=O)N(CC(=O)N2CCc3ccccc32)C1=O (configuration not stated)	.	-0.2%	0%	.
24	NC(=S)N/N=C/c1ccc2cccc(OCc3ccccc3)c2n1	.	6.7%	-10%	-2%
25	C=CCn1c(=O)c2ccccc2n2c(Sc3nnnn3-c3ccccc3)nnc12	-5	-4.0%	8%	-5%
26	Cn1c(SCc2ccc(F)cc2)nnc1-c1cnccn1	6	-5.3%	-2%	-33%
27	Cn1c2ccccc2c2cc(/C=N/NC(=O)c3ccc(N)cc3)ccc21	.	-0.9%	1%	3%
28	O=C(CSc1ccccn1)N1CCc2ccccc21	0	-4.8%	35%	-43%
29	O=C1CN(C(=O)CSc2nc3cc(Cl)ccc3c(=O)n2Cc2ccccc2)c2ccccc2N1	-5	2.2%	1%	-7%
30	C=CCn1c(SCC(=O)NC2(C)CCS(=O)(=O)C2)nc2ccccc21 (configuration not stated)	.	-0.9%	?	.
31	CCN(C(=O)C(=O)c1c[nH]c2ccccc12)c1ccccc1	.	2.1%	1%	0%
32	O=C(/C(=C/c1ccccc1)c1ccccc1)N1CCCCC1	?	-4.4%	1%	-2%
33	Cc1cc(Nc2ccc(F)cc2C)n2nc(C)nc2n1	-9	0.2%	19%	-9%
34	CCCn1c(SCC(=O)Nc2ccc(C)c(S(=O)(=O)N3CCOCC3)c2)n[nH]c1=O	-10	8.8%	20%	-6%
35	CCOc1ccc2nc(NC(=O)CN3CCC(n4nnc5cc(C(F)(F)F)ccc54)CC3)sc2c1	-5	0.7%	6%	-5%
36	Cc1ccc(C)c(NC(=O)Cn2nc([N+](=O)[O-])c(Br)c2C)c1	2	-1.8%	1%	-1%
37	COc1ccccc1NS(=O)(=O)c1ccc(OC)c(OC)c1	6	?	10%	0%
38	COc1ccccc1N1CCN(C/C=C/c2ccc(N(C)C)cc2)CC1	-10	.	.	-7%
39	CCOc1ccccc1N1CCN(C(=O)CN2C(=O)NC3(CCCC3)C2=O)CC1	.	-3.5%	15%	.
40	O=C(CSc1nc(-c2ccccc2)nc2ccccc12)Nc1cccc(C(=O)O)c1	4	-5.0%	11%	-3%
41	COc1cccc(C(=O)Nc2cc(C)c3c(=O)oc4ccccc4c3n2)c1	0	-4.6%	12%	-1%
42	CC(=O)C1=C(S(=O)(=O)c2ccc(C)cc2)CS(=O)(=O)C1	-15	?	?	21%
43	Cc1cccc(C(=O)N2CCCC(Nc3ccc(F)c(F)c3)C2)n1 (configuration not stated)	.	-0.7%	8%	-12%
44	Cn1c(-c2ccc(F)cc2)cnc1NCc1ccc(C#N)cc1	4	0.2%	8%	-2%
45	CC(NO)C(C)(C)NO (configuration not stated)	2	-4.5%	-8%	-3%
46	COc1ccccc1NC(=S)N(Cc1cccnc1)Cc1ccccc1Cl	-7	-4.3%	-1%	-2%
47	CCCCCC(=O)Nc1cc(S(=O)(=O)N2CCCCC2)ccc1N1CCCCC1	.	-1.1%	-21%	.
48	Cc1sc2c(c1C)CN(C(C)(C)C)CN2C(=O)c1ccccc1	-1	0.4%	-11%	-48%
49	O=C(COC(=O)CC1CC2CCC1C2)Nc1cccc(S(=O)(=O)NC2=NCCCCC2)c1 (configuration not stated)	-1	-4.4%	22%	0%
50	CC(C)CNc1ncnc2c1cnn2Cc1ccccc1Cl	.	-4.4%	5%	-1%
51	COc1cc(C=O)cc(Br)c1OCC(N)=O	6	-3.3%	1%	-6%
52	COc1ccc(/C=N/NC(=O)c2cnccn2)c(OC)c1OC	-3	-1.7%	-5%	-4%
53	COCc1[nH]nc2c1C(c1ccccc1F)C(C#N)=C(N)O2 (configuration not stated)	3	-3.3%	1%	-3%
54	O=C(NN=C1CCCCCCCCCCC1)c1ccccc1F	-18	-1.1%	-9%	-56%
55	CCCCn1cnc2c(SCc3ccccn3)nc(N)nc21	.	-1.0%	19%	.
56	O=C(CN(Cc1cccs1)S(=O)(=O)c1ccc(S(=O)(=O)N2CCCCC2)cc1)Nc1ccccc1	5	3.7%	7%	-3%
57	COc1ccccc1C(=O)NC(CCSC)C(=O)OCC(=O)NC(=O)NCc1ccco1 (configuration not stated)	3	-4.0%	15%	0%
58	Cc1ncc(CO)c(/C=N/NC(=O)c2cc3c(s2)CCCC3)c1O	0	?	?	18%
59	Cc1c(C)c2ccc(OCC(=O)N(C)C3CCS(=O)(=O)C3)c(C)c2oc1=O (configuration not stated)	.	4.0%	-3%	-12%
60	Cc1ccsc1C1C(C#N)=C(N)OC2=C1C(=O)CC(C)C2 (configuration not stated)	-8	-3.0%	?	0%

# The results go on.
No.	canonical_smiles	GLA inh pH 4.5	Rango-impB inh	Rango release inh	miR-21 reporter
61	CN(C)S(=O)(=O)c1cccc(COc2cccnc2[N+](=O)[O-])c1	.	-1.4%	-7%	-11%
62	CCOc1ccc(OCCC(=O)OCC(=O)Nc2ccc(Cl)cn2)cc1	.	-3.1%	-17%	.
63	O=C(CCC1CCCN(C(=O)c2ccncc2)C1)NCc1ccc(F)c(F)c1 (configuration not stated)	4	7.3%	-1%	-2%
64	CC(=O)N/C(=C\c1ccccc1)C(=O)OCc1cccc(S(=O)(=O)N(C)C)c1	.	-2.8%	1%	12%
65	O=C(O)c1ccc(-c2ccc(OS(=O)(=O)c3ccccc3F)cc2)cc1	.	0.0%	12%	-57%
66	N[C@@H](Cc1ccccc1)c1nnc2sc(SCc3ccccc3)nn12	-25	0.4%	14%	-8%
67	CCc1ccc(C2CC(c3ccc(Cl)cc3)n3nc(N)nc3N2)cc1 (configuration not stated)	0	-0.1%	9%	-4%
68	CCOC(=O)c1cnc(-c2ccccc2)nc1N	4	3.0%	-9%	-37%
69	CN1CCc2c(sc3c2c(NCc2ccco2)nc2nnnn23)C1	0	?	?	-26%
70	Nc1nc2c(c(=O)[nH]1)C(c1ccccc1)C1=C(N2)c2ccccc2C1=O (configuration not stated)	-12	?	?	5%
71	O=C(O)CC(NC(=O)c1ccncc1)c1ccccc1 (configuration not stated)	1	2.9%	12%	0%
72	CC(C)[C@H](NS(=O)(=O)c1ccccc1)C(=O)OCC(=O)Nc1ccccc1Sc1ccccc1	-13	-5.1%	18%	-1%
73	Cc1nc(N)c(Cc2ccccc2F)c(N)n1	-9	3.5%	-6%	-17%
74	CC1C(=O)N2CCCc3cc(NC(=O)COc4ccc(Cl)cc4)cc1c32 (configuration not stated)	.	-1.7%	-18%	.
75	CCOC(=O)CC1=C(C(=O)OCC)C(c2ccncc2)C(C#N)=C(N)O1 (configuration not stated)	-4	0.2%	-10%	1%
76	COc1cccc(NC(=O)NC2CCCCC2C)c1 (configuration not stated)	-10	2.6%	11%	-12%
77	Cc1cc(C)nc(NS(=O)(=O)c2ccc(N3C(=O)C4CC=C(Cl)CC4C3=O)cc2)n1 (configuration not stated)	-5	-0.9%	26%	-4%
78	Cc1ccc(-c2nsc3c(N4CCN(C(=O)c5ccco5)CC4)ncnc23)cc1	-6	.	.	-25%
79	CCC(C)c1ccc(NC(=O)COC(=O)CCNC(=O)c2ccco2)cc1 (configuration not stated)	.	4.4%	0%	.
80	OC(Cn1cncn1)(Cn1cncn1)c1ccc(F)cc1F	7	-0.1%	11%	.
81	CC(NC(=O)C1CCCC1)c1ccc2c(c1)OCCO2 (configuration not stated)	5	1.8%	3%	-1%
82	O=C(O)Cn1cc(C(=S)N2CCCCC2)c2ccccc21	4	-1.1%	-2%	-6%
83	COc1ccc(OC)c(CN2CCN(C(=O)c3ccc(NS(=O)(=O)c4cccc([N+](=O)[O-])c4)cc3)CC2)c1	.	-0.3%	-1%	.
84	Cc1ccc(NC(=O)NNC(=O)COc2ccc(Cl)cc2)cc1	.	7.4%	0%	.
85	CCOc1ccc(S(=O)(=O)N2CCN(C(=S)NCc3ccccc3)CC2)cc1	-6	-1.8%	13%	2%
86	C=CCOc1c(Cl)cc(CNc2ccc(C)c(Cl)c2)cc1OC	-8	.	.	25%
87	CC(C)(C)OC(=O)NNC(=O)c1ccc(Cl)cc1	7	?	-1%	-15%
88	O=C(CCc1ccc(S(=O)(=O)N2CCOCC2)cc1)NN=C1CCCCCCC1	-5	1.3%	0%	-4%
89	CCC(CC)C1C(C#N)=C(N)SC(N)=C1C#N	6	-1.8%	-18%	-10%
90	O=C1C(=O)N(CCOCCO)C(c2ccccn2)/C1=C(\O)c1ccccc1 (configuration not stated)	-3	1.0%	6%	1%
91	COc1ccc(OCC(=O)OCCN(C)C)cc1	-3	0.8%	1%	-11%
92	Cc1ccc(CSCCNC(=O)CN(c2ccc(F)cc2)S(C)(=O)=O)cc1	.	2.6%	?	5%
93	CC(C)(CNC(=O)c1cc(=O)[nH]c2ccccc12)N1CCOCC1	-2	6.3%	?	-1%
94	COc1ccc(S(=O)(=O)Nc2c(C)nc3nc(C)[nH]n3c2=O)cc1	.	0.8%	-10%	0%&0%
95	Cn1nnc2cc(C(=O)NCc3ccc4c(c3)OCO4)ccc21	10	?	6%	-13%
96	O=S(=O)(c1ccc(F)c2ccccc12)N1CCCCC1	2	-0.2%	0%	-11%
97	CCOC(=O)c1c(NC(=O)Cn2c(=O)oc3ccccc32)oc(C)c1C(C)=O	1	0.8%	-18%	-7%
98	CCN1CCCC1CNC(=O)c1cc2cc(F)ccc2[nH]1 (configuration not stated)	.	?	?	3%
99	COc1ccccc1C(=O)OC(C)CN1CCN(C)CC1 (configuration not stated)	.	-0.9%	5%	4%

# Screening results from PubChem.
